From PubChem BioAssay
LASV entry inh: Lassa virus entry inhibition. Lassa virus pseudotype entry inhibition, cell reporter; control for the full effect not named in the record. Potency, µM (series often up to 37.9 µM), without a hit: at the highest dose activity change, negative = inhibition, usual class: inhibitors. 300,000 compounds, 1.2% hits; active means well fitted inhibition curve with a large enough effect; inconclusive means small, poorly fitted or top-dose-only effect, or effect the other way; inactive means flat fitted curve, though single readings scatter; tested in HEK293 cells; further: on the % scale 0 is the no-effect control and ±100 the full control effect; nearly all actives have a fitted effect of over 50% in size; luciferase read-out
StopGo reporter: FMDV 2A StopGo reporter, luciferase signal; human cells with a luciferase reporter of 2A StopGo recoding; control for the full effect not named in the record; 410,000 compounds, 1.2% hits; Potency, µM (doses to about 57.9 µM), for inactives: top-dose signal change, negative = less light; active = well fitted falling curve with a large enough effect; inconclusive = small, poorly fitted or top-dose-only effect; inactive = no such curve, though single readings can be large or run the other way; tested in HEK293T cells; further: on the % scale 0 is the no-effect control and ±100 the full control effect; nearly all actives have a fitted effect of over 45% in size; luciferase light after 4 h
MARV entry inh: inhibitors of Marburg virus binding or cell entry. Marburg virus pseudotyped entry inhibition, cell reporter; control for the full effect not named in the record; about a third of the inactives were read at about 46 µM. Potency, µM (top dose mostly 37.8 µM), without a hit: at the highest dose activity change, negative = inhibition, actives largely listed as inhibitors. 300,000 compounds, 1.8% hits. AID 540276; active = well fitted inhibition curve with a large enough effect; inconclusive = small, poorly fitted or top-dose-only effect, or effect the other way; inactive = flat fitted curve, though single readings scatter; tested in HEK293 cells; about a fifth of its hits are not listed in these tables; further: on the % scale 0 is the no-effect control and ±100 the full control effect; luciferase read-out
Cruzain Triton: cruzain (T. cruzi) inhibition with detergent. 200,000 compounds, 0.43% hits. purified cruzain, Z-FR-AMC fluorescence, 0.01% Triton. Potency, µM, for inactives: max response, negative = inhibition, most hits filed as inhibitors; active means well fitted curve in the direction sought with a large enough effect; inconclusive means small, poorly fitted or top-dose-only effect, or another doubt; inactive means no such curve, though single readings can be large; an effect the other way counts as inactive or inconclusive;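 further: plate controls were neutral wells for no effect and buffer without enzyme for full effect; nearly all actives have a fitted effect of over 40% in size; top concentration of the series not given in the record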
Target sequence (P25779 123-467 limits assumed): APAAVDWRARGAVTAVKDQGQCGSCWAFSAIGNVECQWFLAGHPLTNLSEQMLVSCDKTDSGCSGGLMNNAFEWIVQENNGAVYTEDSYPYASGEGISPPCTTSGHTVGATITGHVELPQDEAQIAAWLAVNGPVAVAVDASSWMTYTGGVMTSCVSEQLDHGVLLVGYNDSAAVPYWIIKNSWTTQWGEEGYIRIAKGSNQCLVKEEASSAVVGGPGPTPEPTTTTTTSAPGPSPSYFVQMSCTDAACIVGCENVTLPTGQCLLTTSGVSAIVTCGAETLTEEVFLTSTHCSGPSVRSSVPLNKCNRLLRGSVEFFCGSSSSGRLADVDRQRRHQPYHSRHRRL
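Purified cruzain (1.5 nM final) was preincubated with compounds for 15 min at room temperature in 100 mM sodium acetate pH 5.5, 5 mM DTT, 0.01% Triton X-100. Reaction started with 2 uM Z-FR-AMC; AMC fluorescence change over 60 s gave activity.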
Cruzain inh noDet: blocks cruzain activity in detergent-free assay | Potency, µM, for inactives: max response, negative = inhibition, usual class: inhibitors | purified cruzain, Z-FR-AMC fluorescence, no detergent | 200,000 compounds, 2.3% hits | AID 1476; active means well fitted curve in the direction sought with a large enough effect; inconclusive means small, poorly fitted or top-dose-only effect, or another doubt; inactive means no such curve, though single readings can be large; an effect the other way counts as inactive or inconclusive;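 further: plate controls were enzyme without inhibitor for no effect and buffer without enzyme for full effect; nearly all actives have a fitted effect of over 40% in size; top concentration of the series not given in the record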
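Detergent-free condition (0.00005% Triton X-100) in acetate buffer pH 5.5 with DTT. 1.5 nM enzyme and compound were pre-mixed 15 min, then 2 uM Z-FR-AMC substrate added; reaction progress from fluorescence change between first and third reads (60 s).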
SARS PLP yeast: blocks SARS-CoV papain-like protease in a yeast assay. S. cerevisiae expressing SARS-CoV PLpro, growth rescue; control for the full effect not named in the record. Potency, µM (titrated, usually from 32.9 µM), inactives show top-dose activity, positive = growth rescue. 330,000 compounds, 0.19% hits; further: 0% is about no effect; nearly all actives have a fitted effect of over 55% in size; growth read by luminescence after 48 h
RE007 growth inh: less growth of the S. pombe RE007 Vpr strain; S. pombe RE007 Vpr strain, BacTiter-Glo ATP luminescence, 24 h; control for the full effect not named in the record; 360,000 compounds, 0.21% hits; Potency, µM (top dose mostly 92.2 µM), inactives show at the highest dose activity change, negative = less growth; active = well fitted falling curve with a large enough effect; inconclusive = small, poorly fitted or top-dose-only effect; inactive = no such curve, though single readings can be large or run the other way;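 further: on the % scale 0 is the no-effect control and ±100 the full control effect; nearly all actives have a fitted effect of over 50% in size; the assay follows cell death caused by Vpr and the record does not say whether a fall means rescue or toxicity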
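Fission yeast RE007 carrying one integrated HIV-1 vpr copy, seeded at OD 0.01 in PMG+AL medium with 23 nL pinned compound. Grown 24 h at 30 degrees; viability read by BacTiter-Glo luminescence after 5 min.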
NS1 function inh: inhibitors of influenza NS1 protein function | Potency, µM (top dose mostly 46.1 µM), without a hit: at the highest dose activity, positive = more growth | S. cerevisiae slowed by influenza A NS1, growth recovery by OD600 | 270,000 compounds, 0.4% hits; further: actives are rising curves; nearly all actives have a fitted effect of over 50% in size
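In this qHTS, NS1 from influenza A is expressed in budding yeast, where it slows growth. Cells are switched from glucose to 2% galactose medium (pH 6.0, -URA), treated with compound, and growth recovery is read at OD600.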
Numbers without * were called inactive; ? = inconclusive; . = no result given; [ ] = remark or other dose. Unless noted, the call rests on the fitted dose curve; in most records, active means well fitted rising curve with a large enough effect; inconclusive means small, poorly fitted or top-dose-only effect; inactive means no such curve, though single readings can be large or run the other way. Potency means the concentration at half of the fitted maximal effect.

SMILES	LASV entry inh	StopGo reporter	MARV entry inh	Cruzain Triton	Cruzain inh noDet	SARS PLP yeast	RE007 growth inh	NS1 function inh
C=CCN(CC=C)C(=O)c1ccc(OC2CCN(C(C)=O)CC2)c(OC)c1	.	7.3%	.	.	.	-0.5%	-10.2%	9.4%
O=C(CN1C(=O)NC2(CCOc3ccccc32)C1=O)Nc1ccc(F)c(F)c1F (stereo not drawn)	3.8%	-6.7%	-20.3%[46.1 µM]	.	.	0.5%	5.4%	-5.2%
CCn1nc(NS(=O)(=O)c2ccccc2[N+](=O)[O-])c2cc3cccc(C)c3nc21	.	-1.7%	.	.	.	-0.2%	-4.5%	1.6%
CCC(Sc1nc(N)cc(=O)[nH]1)C(=O)NC(C(=O)OC)c1ccccc1 (stereo not drawn)	2.8%	-9.3%	-1.3%	3.4%	4.9%	0.5%	39.4%	-4.0%
Cc1c(C(=O)Nc2cccc(C(F)(F)F)c2)oc2ccc(S(=O)(=O)N3CCC4(CC3)OCCO4)cc12	28.6%[46.1 µM]	15.8µM*	.	0.6%	1.7%	.	.	.
Cc1ccc(OCc2nc(C#N)c(N3CCN(Cc4ccccc4)CC3)o2)cc1	-28.5%	-19.0%	-7.8%	0.8%	2.3%	-9.7%	-17.5%	-67.3%
CCN(Cc1ccccc1)C(c1cc2ccc(C)cc2[nH]c1=O)c1nnnn1CCOC (stereo not drawn)	-12.1%	10.6%	?	-4.4%	?	5.9%	8.7%	-2.9%
CCOC(=O)c1ccc(N2C(=O)c3n[nH]c(-c4cccs4)c3C2c2ccc(OCC)cc2)cc1 (stereo not drawn)	?	-28.0%	12.6µM*	-3.1%	?	.	.	.
COc1ccc(/C=C\c2onc(C)c2S(=O)(=O)N2CCC(C(=O)Nc3ccc(C)c(F)c3)CC2)cc1	21.1%[46.1 µM]	?	-2.4%[46.1 µM]	-4.8%	-28.8%	.	.	.
Cc1nn(Cc2ccccc2Cl)c(C)c1C(=O)NC1CCCc2ccccc21 (stereo not drawn)	-5.1%	-2.2%	-32.9%	-5.2%	?	-12.4%	30.7%	-13.8%
CCc1cccc(CC)c1NC(=O)C1CC(=O)N(c2ccc3c(c2)OCCO3)C1 (stereo not drawn)	-3.5%	3.2%	?	3.8%	-0.1%	0.2%	-0.4%	6.3%
CC(C)(C)c1ccc(CCC2OCC(CN3CCOCC3)O2)cc1 (stereo not drawn)	?	-16.1%	-17.8%[46.1 µM]	.	.	-0.5%	-10.2%	1.0%
O=C(CN1CCN(Cc2cccc(Cl)c2)C1=O)NCC1CCCO1 (stereo not drawn)	.	-5.3%	.	1.5%	-3.0%	-0.4%	-10.0%	-2.9%
COc1ccccc1N1CCN(C(=O)c2ccccc2N(C)S(=O)(=O)c2ccc(C)cc2)CC1	?	?	?	.	.	-6.4%	6.0%	-15.7%
O=C1CN(C(=O)COC(=O)c2ccc[n+]([O-])c2)c2ccccc2N1	0.4%	-12.4%	20.4%[46.1 µM]	.	.	-0.1%	-0.2%	.
CCn1c(=O)cc(OCC(=O)NCc2ccc(F)cc2Cl)c2ccccc21	5.7%[46.1 µM]	-7.1%	-17.0%[46.1 µM]	-2.2%	-5.8%	.	.	.
COC(=O)c1cc(NCc2ccc3c(c2)OCO3)ccc1N1CCOCC1	-47.2%[14.3 µM]	-9.9%	1.0%	-4.4%	-0.4%	0.8%	9.4%	0.2%
COc1ccc(/C=C2\SC(N3CCCCC3)=NC2=O)cc1OC	-13.9%[46.1 µM]	20.3%	26.0%[46.1 µM]	.	.	-1.5%	-13.1%	-2.8%
O=C(Nn1cnnc1)c1ccc(Cl)cc1	.	-10.1%	.	.	.	-0.6%	0.1%	8.3%
Cc1ccc(Cl)c(OCC(=O)Nc2sc(C)c(C)c2C#N)c1	8.0%	25.8%	-2.9%	-1.4%	-28.8%	6.2%	-4.4%	11.5%
CC(C)c1ccc(NC(=O)CNS(=O)(=O)c2ccc(F)cc2)cc1	.	-14.4%	.	.	.	-1.1%	-0.4%	-1.3%
O=C(NC1CCN(Cc2ccccc2)CC1)c1cc(-c2ccccn2)nc2ccccc12	8.6%	-19.4%	?	6.1%	7.4%	.	32.8%	-2.3%
CCCC(C)C(=O)Nc1nc(C)c(-c2csc(Nc3ccc(Cl)cc3)n2)s1 (stereo not drawn)	.	?	.	2.5%	10µM*	-4.1%	-9.1%	4.47µM*
O=C(Nc1ccccn1)c1ccc(NC(=O)c2ccco2)cc1	-25.0%	26.6%	?	5.1%	-6.5%	-11.0%	-14.4%	-87.8%
CN(Cc1cnccn1)C(=O)C1CCC(=O)N(CCc2ccccc2)C1 (stereo not drawn)	.	2.2%	.	.	.	6.8%	0.8%	12.5%
COc1ccc(N(CC(=O)NN=C2CCCC2)S(=O)(=O)c2ccccc2)cc1Cl	-6.0%	21.9%	-24.9%	-1.5%	10.4%	11.3%	-6.6%	20.4%
O=C(Nc1ccc(-c2nc3cccnc3s2)cc1)c1ccco1	.	27.1%	.	-4.3%	-2.8%	-17.6%	-7.5%	-11.2%
Cc1c(C(=O)O)oc2c1-c1nn(Cc3ccccc3Cl)cc1CC2	-8.7%[46.1 µM]	-23.5%	2.7%[46.1 µM]	-5.0%	3.0%	.	.	.
CCc1ccc2[nH]c3nc(SCC(=O)NNC(=O)c4ccc(C(C)(C)C)cc4)nnc3c2c1	?	-4.3%	4.61µM*	-0.5%	3.98µM*	-0.8%	-6.5%	11.2%
CC1CCN(C(=O)Cn2c3ccc(F)cc3c3nc4n(c(=O)c32)CCCS4)CC1	.	?	.	.	.	4.6%	11.0%	9.4%
Cc1ccn2cc(CNC(=O)c3ccc(Br)o3)nc2c1	.	-24.1%	.	-9.1%	-15.1%	-1.9%	-15.4%	-9.2%
CC(CN1CCCC1)OC(=O)Cc1ccc(Cl)cc1 (stereo not drawn)	27.7%	-4.3%	5.1%	.	.	-3.8%	2.3%	2.0%
Cc1cc(C)n(CC(=O)NNC(=O)C2CC(=O)N(Cc3ccccc3Cl)C2)n1 (stereo not drawn)	2.7%	3.3%	4.5%	.	.	3.5%	-20.4%	7.7%
CCSc1nnc(NC(=O)C2Cc3ccccc3CN2C(=O)c2ccco2)s1 (stereo not drawn)	-3.8%	16.0%	3.0%[46.1 µM]	-23.4%	-16.5%	5.6%	4.5%	1.0%
Cc1nn(C(C)C(=O)Nc2ccc(C(C)C)cc2)c(=O)c2c1sc1ccccc12 (stereo not drawn)	?	-8.4%	26.4%[46.1 µM]	-2.7%	-0.2%	.	.	.
Cc1nn(C(C)(C)C)c(NC(=O)c2ccc(Cl)cc2Cl)c1Br	-25.4%	-13.4%	-0.7%[46.1 µM]	.	.	0.1%	-20.0%	1.6%
COc1ccc(S(=O)(=O)N2c3ccccc3NC(=O)CC2C)cc1 (stereo not drawn)	-6.6%[46.1 µM]	-16.5%	10.5%[46.1 µM]	.	.	?	13.7%	3.8%
CC(SC1CCCC1)C(=O)Nc1ccnn1C(C)C (stereo not drawn)	-5.7%	-9.7%	22.5%	-0.9%	4.1%	7.7%	3.2%	-4.4%
CCCNC(=O)Cn1c(=O)n(CC(=O)N2CCCCC2)c(=O)c2sccc21	.	-11.2%	.	.	.	-2.9%	-2.7%	-13.9%
COc1ccnc(Oc2ccc3ccccc3c2)c1C#N	1.3%	26.5%	29.8%	-5.4%	1.5%	14.2%	-17.0%	?

Pulled one by one from above (4):
SMILES	LASV entry inh	StopGo reporter	MARV entry inh	Cruzain Triton	Cruzain inh noDet	SARS PLP yeast	RE007 growth inh	NS1 function inh
CCSc1nnc(NC(=O)C2Cc3ccccc3CN2C(=O)c2ccco2)s1 (stereo not drawn)	-3.8%	16.0%	3.0%[46.1 µM]	-23.4%	-16.5%	5.6%	4.5%	1.0%
CC(CN1CCCC1)OC(=O)Cc1ccc(Cl)cc1 (stereo not drawn)	27.7%	-4.3%	5.1%	.	.	-3.8%	2.3%	2.0%
CCCNC(=O)Cn1c(=O)n(CC(=O)N2CCCCC2)c(=O)c2sccc21	.	-11.2%	.	.	.	-2.9%	-2.7%	-13.9%
Cc1nn(C(C)C(=O)Nc2ccc(C(C)C)cc2)c(=O)c2c1sc1ccccc12 (stereo not drawn)	?	-8.4%	26.4%[46.1 µM]	-2.7%	-0.2%	.	.	.

Remaining list, next part
SMILES	LASV entry inh	StopGo reporter	MARV entry inh	Cruzain Triton	Cruzain inh noDet	SARS PLP yeast	RE007 growth inh	NS1 function inh
CCn1c(SCC(=O)Nc2ncc(C(F)(F)F)cc2Cl)nnc1-c1cccc(C)c1	-3.3%	?	7.9%	-3.7%	22.4%	10.9%	20.1%	2.8%
O=C1CSc2nc3ccccc3n21	-1.7%	0.0%	10.9%	4.3%	19.1%	-3.1%	23.8%	-6.8%
NC1(N)OC(CN2C(=O)c3ccccc3C2=O)CS1 (stereo not drawn)	?	-22.2%	-6.2%	1.3%	-5.8%	0.3%	15.8%	4.2%
COCCNC(=O)c1ccccc1NC(=O)c1cccc([N+](=O)[O-])c1C	-13.6%[46.1 µM]	-19.6%	?	.	.	0.0%	11.6%	.
CC1(C)Cc2c(C#N)c(N)sc(=S)c2CO1	-0.5%	.	-3.1%	-10.1%	-16.3%	-6.7%	1.5%	0.0%
Cc1ccc(C)c(-n2nnnc2SCC(=O)c2ccc3c(c2)NC(=O)CO3)c1	?	?	?	-0.1%	-21.5%	-10.0%	2.2%	-10.5%
O=C1C(=O)N(CCCN2CCOCC2)C(c2ccc(F)cc2)/C1=C(\O)c1ccc2c(c1)OCCO2 (stereo not drawn)	.	-20.0%	.	.	.	-5.8%	1.2%	-3.9%
Cc1ccccc1CNC(=O)Nc1cccs1	?	49.8%[activator]	18.2%	2.4%	7.6%	-1.8%	-0.1%	6.6%
CN1C(=O)N(C)C2(C)CC1(C)N(C)C(=O)N2C	.	-14.1%	.	.	.	-0.1%	2.1%	2.1%
COc1ccccc1CN1CCN(C2CCN(C(=O)Nc3ccccc3)CC2)C(=O)C1=O	18.4%[46.1 µM]	-13.8%	.	0.1%	4.7%	.	.	.
